PINK1 modulator = modulators of PINK1 expression | PINK1 immunofluorescence, high-content cytometry, 24 h | actives 0.2% (n = 410,000) | Potency, µM (highest dose often 76.6 µM), for the others: top-dose activation (PINK1 increase), usual class: activators; active = well fitted activation curve with a large enough effect; inconclusive = small, poorly fitted or top-dose-only effect; inactive = flat fitted curve, though single readings scatter; cell line not stated here;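 also: potency is read from the fitted curve at half-maximal effect; % of control where 0% means no effect; nearly all actives have a fitted effect of over 65% in size; a mitochondrial uncoupler was the plate control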
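Measures PINK1 amount and localization on or inside mitochondria by immunofluorescence. Stable cells get compounds at 5 concentrations for 24 hours before fixation and staining; CCCP controls included.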
Six1-Eya2 blk = Six1/Eya2 interaction inhibition; Q15475+O00167; AlphaScreen GST-Six1/His-Eya2 binding, biochemical; stronger effect = lower value; control for the full effect not named in the record; activity change, % (concentration not given with the values); actives 0.56% (n = 360,000); in the data active = activity change below about -65%; inconclusive = about -30% to -65%; inactive = above about -30%; also: % is scaled to controls: 0 for no effect and ±100 for the full control effect
Target sequence (O00167 whole entry, looked up): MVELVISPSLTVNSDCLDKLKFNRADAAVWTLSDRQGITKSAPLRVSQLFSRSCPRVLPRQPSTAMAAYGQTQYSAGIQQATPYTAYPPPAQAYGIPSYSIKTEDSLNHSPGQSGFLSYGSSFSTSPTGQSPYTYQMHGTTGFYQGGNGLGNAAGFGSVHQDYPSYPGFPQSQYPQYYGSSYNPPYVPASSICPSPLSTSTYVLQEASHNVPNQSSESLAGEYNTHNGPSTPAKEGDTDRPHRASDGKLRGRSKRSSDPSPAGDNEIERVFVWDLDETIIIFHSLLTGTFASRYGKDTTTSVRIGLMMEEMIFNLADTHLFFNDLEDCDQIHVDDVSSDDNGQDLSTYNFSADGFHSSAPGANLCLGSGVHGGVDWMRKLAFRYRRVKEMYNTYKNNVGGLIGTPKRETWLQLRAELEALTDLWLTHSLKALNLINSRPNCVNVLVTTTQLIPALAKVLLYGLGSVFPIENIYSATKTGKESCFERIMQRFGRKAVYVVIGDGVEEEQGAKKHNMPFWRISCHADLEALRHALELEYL
Target sequence (Q15475 whole entry, looked up): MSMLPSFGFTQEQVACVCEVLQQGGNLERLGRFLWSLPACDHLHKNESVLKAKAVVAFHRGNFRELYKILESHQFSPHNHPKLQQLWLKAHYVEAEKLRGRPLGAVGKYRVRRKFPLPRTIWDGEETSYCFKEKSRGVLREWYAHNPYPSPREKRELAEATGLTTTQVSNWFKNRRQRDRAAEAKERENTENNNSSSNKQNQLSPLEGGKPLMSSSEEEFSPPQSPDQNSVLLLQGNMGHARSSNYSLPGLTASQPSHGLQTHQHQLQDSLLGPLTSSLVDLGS
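Six1/Eya2 binding was read as AlphaScreen signal after compounds were pinned into GST-Six1 plus His-tagged Eya2 (5X stock 250/500 nM) in pH 8.0 Tris/NaCl/TCEP buffer, beads added, then incubated 1 h, 37 C, dark.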
D2 ag = human D2 receptor agonism in beta-arrestin assay; P14416; actives 0.084% (n = 360,000); activation, % (concentration not given with the values); AID 624465; DiscoveRx PathHunter D2 beta-arrestin, luminescence, 90 min; 100% = 57 uM dopamine signal; in the data active = activation above about 40%; inconclusive = about 15% to 40%; inactive = below about 15%; also: compound concentration not given in the record; the text of the record calls up to 30% inactive
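Agonist mode: compounds alone added to overnight-plated D2 PathHunter cells for 90 min at 37 C, with 57 uM final dopamine (EC100) defining full response. Beta-arrestin recruitment detected by chemiluminescent reagent, read after 1 h at ambient temperature.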
TRPML1 blocker = inhibitors of human TRPML1 channel. Q9GZU1. TRPML1-inducible cells, Ca2+ dye fluorescence, FDSS; stronger effect = lower value; inhibition of EC80 agonist-evoked calcium signal. activity change, negative = inhibition, % (no concentration beside the values). actives 0.02% (n = 390,000); in the data active means activity change below about -50%; inconclusive means about -30% to -50%; inactive means above about -30%;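 also: stimulus is agonist 54-4 at its EC80 concentration; % is scaled to controls: 0 for no effect and ±100 for the full control effect; compound concentration not given in the record; the text of the record puts the active cut at -80%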
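Calcium fluorescence in TRPML1-DL cells induced overnight with Tet: a 110 s read after compound pin addition, then a 110 s antagonist read after challenge with 54-4 at 4 uM final (EC80).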
D2 potentiator = positive allosteric modulators of human D2 dopamine receptor; DiscoveRx D2 beta-arrestin cells, luminescence, 90 min; 100% = 57 uM dopamine signal; potentiation, % (concentration not given with the values); actives 0.23% (n = 360,000); AID 624464; active = potentiation of 50% or more; inconclusive = 30% to 50%; inactive = 30% or less;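 also: compound concentration not given in the record; tested on top of an EC20 dose of dopamine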
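PathHunter D2 cells, attached overnight at 37 deg C, received compound in DMSO plus dopamine at EC20 (50 nM final) for 90 min at 37 deg C. Beta-arrestin recruitment was read as luminescence after 1 h with detection reagent at ambient temperature.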
TRPML1 ag = agonists of human TRPML1 channel; TRPML1-expressing cells, Ca2+ dye fluorescence, FDSS; host cell line not named in the record; reference of the full effect not given here; activation, % (no concentration beside the values); actives 0.12% (n = 410,000); AID 624414; in the data active = activation above about 50%; inconclusive = about 30% to 50%; inactive = below about 30%; also: 0% is about no effect; the text of the record puts the active cut at 80%
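Tetracycline-induced TRPML1-DL cells are seeded and incubated overnight before loading with a no-wash Ca2+ dye and quencher. Agonist activity is taken from the 110 s fluorescence read following compound pin-transfer on an FDSS, before EC80 54-4 challenge.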
Starred values were filed as active, the others as inactive; ? = inconclusive; · = not tested or not shown; [ ] = another dose, or the depositor's remark.

SMILES	PINK1 modulator	Six1-Eya2 blk	D2 ag	TRPML1 blocker	D2 potentiator	TRPML1 ag
CC(Cl)C(=O)N1c2ccccc2CCc2ccccc21 (stereo not given)	9.7%	3	6.3	-5	-1	-1.1
CC1Sc2ccc(S(=O)(=O)N3CCC(C(=O)N4CCN(C)CC4)CC3)cc2NC1=O (stereo not given)	-0.5%	2	-2.0	-5	-5	-0.3
CN(Cc1cc2ccccc2[nH]c1=O)S(C)(=O)=O	3.4%[38.3 µM]	-9	-2.8	17	-6	0.1
COc1ccc(Cc2nnc(NC(=O)C(C)C)s2)cc1	-1.3%	7	-6.3	13	-2	1.0
COc1cc(C2c3c(-c4cc(C)ccc4O)n[nH]c3C(=O)N2Cc2cccnc2)cc(OC)c1OC (stereo not given)	8.3%	·	·	-5	·	0.0
CN(C(=O)c1ccc2c(c1)OCO2)C1(C)CCS(=O)(=O)C1 (stereo not given)	3.1%	9	-1.5	-12	1	0.0
O=C(c1cc(-c2ccccc2)on1)N1CCCCCC1	2.8%	12	-3.1	26	-2	0.3
COc1ccc2nc(N(Cc3cccnc3)C(=O)CCc3ccccc3)sc2c1	7.2%	·	·	16	·	2.0
CC(=O)N/C(=C\c1ccccc1)C(=O)OC(C)C(=O)Nc1ccccc1F (stereo not given)	-1.0%	6	-2.8	5	5	-0.1
Cn1c(SCC(=O)N2CCc3ccccc32)nnc1C1CC1	-0.4%	3	-4.3	5	-21	-0.5

Some of these compounds in order of the Six1-Eya2 blk value, largest number first.
mol	PINK1 modulator	Six1-Eya2 blk	D2 ag	TRPML1 blocker	D2 potentiator
O=C(c1cc(-c2ccccc2)on1)N1CCCCCC1	2.8%	12	-3.1	26	-2
CN(C(=O)c1ccc2c(c1)OCO2)C1(C)CCS(=O)(=O)C1 (stereo not given)	3.1%	9	-1.5	-12	1
COc1ccc(Cc2nnc(NC(=O)C(C)C)s2)cc1	-1.3%	7	-6.3	13	-2
Cn1c(SCC(=O)N2CCc3ccccc32)nnc1C1CC1	-0.4%	3	-4.3	5	-21
CC1Sc2ccc(S(=O)(=O)N3CCC(C(=O)N4CCN(C)CC4)CC3)cc2NC1=O (stereo not given)	-0.5%	2	-2.0	-5	-5
CN(Cc1cc2ccccc2[nH]c1=O)S(C)(=O)=O	3.4%[38.3 µM]	-9	-2.8	17	-6

Single values from above:
`CN(C(=O)c1ccc2c(c1)OCO2)C1(C)CCS(=O)(=O)C1` (stereo not given) in PINK1 modulator reads 3.1%
`O=C(c1cc(-c2ccccc2)on1)N1CCCCCC1` in Six1-Eya2 blk reads 12
`CC1Sc2ccc(S(=O)(=O)N3CCC(C(=O)N4CCN(C)CC4)CC3)cc2NC1=O` (stereo not given) in D2 potentiator reads -5
`COc1ccc(Cc2nnc(NC(=O)C(C)C)s2)cc1` in D2 ag reads -6.3
`COc1cc(C2c3c(-c4cc(C)ccc4O)n[nH]c3C(=O)N2Cc2cccnc2)cc(OC)c1OC` (stereo not given) in TRPML1 ag reads 0.0
`CN(Cc1cc2ccccc2[nH]c1=O)S(C)(=O)=O` in PINK1 modulator reads 3.4%[38.3 µM]

In the list so far, 2 have a carbonyl joined to an NH by a bond outside any ring.
SMILES	PINK1 modulator	Six1-Eya2 blk	D2 ag	TRPML1 blocker	D2 potentiator	TRPML1 ag
COc1ccc(Cc2nnc(NC(=O)C(C)C)s2)cc1	-1.3%	7	-6.3	13	-2	1.0
CC(=O)N/C(=C\c1ccccc1)C(=O)OC(C)C(=O)Nc1ccccc1F (stereo not given)	-1.0%	6	-2.8	5	5	-0.1

(further entries)
SMILES	PINK1 modulator	Six1-Eya2 blk	D2 ag	TRPML1 blocker	D2 potentiator	TRPML1 ag
CC(C)c1ccc(S(=O)(=O)c2nnn3c2nc(NCc2cccs2)c2sccc23)cc1	1.6%	·	·	32	·	1.7
CCn1c(CN2CCCCC2)nc2cc(NC(=O)c3cccc([N+](=O)[O-])c3)ccc21	6.8%	·	·	4	·	-0.4
O=C(CC[C@H]1O[C@@H](n2ccc(=O)[nH]c2=O)[C@H](O)[C@@H]1O)N[C@H](Cc1ccccc1)C(=O)NCC1CCCCC1	0.2%	6	-2.7	·	-2	-0.2
O=C(NNC(=O)c1ccccc1-n1cccc1)c1cccnc1	2.6%	-3	-2.6	1	-6	-0.5
COC(=O)C1C(=O)c2c([nH]c(C(=O)OCCSC)c2C)CC1C (stereo not given)	0.8%	-2	2.8	-8	-3	0.6
Cc1ccc(NC(=O)/C(C#N)=C/c2ccc(C)s2)c(C)c1	12%	-3	4.0	-7	4	2.4
CSc1ccccc1NC(=O)CN(C)C(=O)c1ccc2c(c1)OCCO2	0.5%	-12	-3.9	1	-8	0.6
Cc1cc(S(=O)(=O)n2ccnc2C(C)C)cc([N+](=O)[O-])c1C	4.5%	·	·	10	·	0.7
O=C(COc1ccccc1)N1CCN(S(=O)(=O)Cc2ccccc2)CC1	0.5%[38.3 µM]	2	-2.4	0	-13	0.0
COCCNC(=O)COC(=O)c1nsc(Cl)c1Cl	1.0%	0	-1.4	-1	-6	0.8
Cc1ccc(C(=O)Nc2ccccc2SCC2CSc3nc4ccccc4c(=O)n32)cc1 (stereo not given)	1.1%	-12	0.0	19	-19	1.1
CC1CCCCC1NC(=O)CSc1nnc(-c2ccco2)n1N (stereo not given)	0.5%	1	-1.8	-3	-3	-0.1
CCOc1ccc(S(=O)(=O)N2CCC(C(=O)N3CCOCC3)CC2)cc1C	-0.3%	-3	-3.0	-1	-4	-0.3
CCCS(=O)(=O)N1CCC(C(=O)Oc2ccc(OC)cc2)CC1	0.8%	7	8.5	3	0	0.0
Cc1ccc(S(=O)(=O)NCc2ccccc2)cc1C(=O)N1CCN(S(=O)(=O)c2ccccc2)CC1	0.4%	7	-1.1	-6	-7	-0.8
CCN(c1cccc(C)c1)C(C(=O)Nc1ccc(OC)cc1)c1cc2c(cc1[N+](=O)[O-])OCO2 (stereo not given)	0.8%	?	1.4	-1	-4	0.5
CCOC(=O)C1=CCN(S(=O)(=O)c2ccc(C)cc2)C1c1ccc(C(C)C)cc1 (stereo not given)	5.4%	-1	-5.6	-9	-2	0.5
COC(=O)[C@]12CCCCC=C1N(Cc1cccc3ccccc13)C(=O)[C@H](CC(=O)NCc1cccs1)C2	-0.7%	-11	·	·	·	-0.3
COc1ccc(CC(=O)NCc2nc3cccnc3n2Cc2ccc(F)cc2)cc1OC	0.9%	·	·	11	·	0.0
CCOc1ccc(-c2ccc(NS(=O)(=O)c3cc(C)c(C)cc3C)cc2)nn1	0.2%	·	·	7	·	1.8
Cc1ccc(NC(=O)C(NS(=O)(=O)c2ccc3c(c2)CCC(=O)N3)c2ccccc2)cc1C (stereo not given)	0.2%	·	·	9	·	0.9
CCN(CC)CCNC(=O)c1cn(C)c2ccc(S(=O)(=O)N(C)C3CCCCC3)cc2c1=O	0.1%	-6	-4.8	-8	-4	-0.2
CCN(CC)S(=O)(=O)c1ccc(NC(=O)COc2cccc(-n3cnnn3)c2)cc1	-0.3%	-9	-2.5	10	-3	-0.1
O=[N+]([O-])c1ccc(C=NNC(=S)NN=Cc2ccc([N+](=O)[O-])cc2)cc1	1.0%	-20	4.2	-2	0	0.8
CCC(Sc1ccc2nnc(-c3ccc(F)cc3)n2n1)C(=O)OC (stereo not given)	1.8%[38.3 µM]	-9	-3.5	7	3	-0.1
COc1cccc(-c2nnc(-c3ccc(C(F)(F)F)cc3)o2)c1	3.9%	13	-5.3	18	-11	1.0
CC(Sc1nnc(COc2ccc([N+](=O)[O-])cc2)n1-c1ccccc1)C(=O)O (stereo not given)	1.1%	2	-2.5	-2	-5	-0.8
O=C(NCCc1ccccc1)c1cnn(-c2ccc(F)cc2)c1-n1cccc1	-0.6%	·	·	-4	·	3.6
Cc1c(NC(=O)c2ccc(Cl)nc2)cccc1-c1nc2cccnc2s1	-1.4%	-2	0.9	32	-14	-0.2

High-throughput results deposited in PubChem by National Center for Advancing Translational Sciences (NCATS).
